HIV Env fusion – HIV envelope-mediated fusion inhibition. HeLa-JRFL Env/CEM21 cell fusion, luciferase. inhibition, % at 12.3 µM. 360,000 compounds, 1.1% hits;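 active = mean replicate inhibition score of at least 50 and every replicate individually at or above 50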;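 note: 0% = plate neutral controls and 100% = maraviroc near 300 nM; one replicate is shown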
MT1-MMP act inh – inhibitors of human MT1-MMP activation. P50281. HT1080 RFP-PRO-GFP cells, GFP/RFP ratio fluorescence, overnight; percent of plate control window, DMSO zero. GFP/RFP ratio change, % at 20 µM. 360,000 compounds, 0.061% hits. AID 651647;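 active = GFP/RFP ratio change of at least 30% with cell ATP level not reduced by more than half and red fluorescence within 50% of control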; note: strong numbers were not always called active
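Assay system: RFP-PRO-GFP reporter HT1080 cells; read-out basis: GFP/RFP fluorescence ratio; benchmarks: DMSO wells and RFP-L50D-GFP cells; doses: 20 µM single dose, 1% DMSO; schedule: overnight cell settling, then overnight compound exposure, 37 °C, 5% CO2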
MT1-MMP act inh RFP – recorded beside MT1-MMP act inh, whose call it bears; RFP signal change, %; measured here: RFP expression control read;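 0 = vehicle wells; hits needed this value within 50% of zero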
An asterisk follows results filed as active. The list is partial; rates above refer to the full screens.

SMILES	HIV Env fusion	MT1-MMP act inh	MT1-MMP act inh RFP
Cc1cccc(COc2ccc(S(=O)(=O)N3CCOCC3)cc2[N+](=O)[O-])c1	-1	0	-3
O=C(N/N=C/c1ccc(Br)cc1)c1ccc(NC(=O)c2ccccc2)cc1	8	-1	0
O=C1OC(c2ccccc2)(c2cc(Br)ccc2O)c2ccccc21 (stereo unspecified)	12	4	-5
C=CCn1c2c(c3ccccc31)CCC2	-31	3	2
CC1(c2ccc3ccccc3c2)CCC(=O)O1 (stereo unspecified)	19	2	2
CCOC(=O)[C@]12CCCC=C1N(Cc1cccc3ccccc13)C(=O)[C@H](CC(=O)N1CCC(c3ccccc3)CC1)C2	-6	-6	-14
CC(C)C[C@@H]1CN(CCCC[C@H]2CNC(=O)C(=O)N2CCC2CCCCC2)C(=O)C(=O)N1Cc1ccccc1	-57	4	0
CCOC(=O)C(C#N)=C1CCC=C(C)C1	-6	2	5
COc1cc(OC)cc(-c2c(Sc3ccccc3)c3cc(-c4ccc(SC)cc4)ccc3n2C)c1	-6	5	2
Cc1cc2c(cc1C)-n1nnnc1C(N(C)Cc1ccccc1)C(=O)N2 (stereo unspecified)	43	-9	-4
CCCc1cc(CCC)n2nc(N)nc2n1	-14	-8	3
Nc1[nH]c(C(=O)c2ccccc2)c(-c2ccc(Cl)cc2)c1C(=O)NCc1ccco1	-7	-1	5
CC1Cc2[nH]c(=S)[nH]c(=O)c2C(C(C)C)O1 (stereo unspecified)	-21	2	4
COc1cc(CNc2ncnc3c2ncn3[C@H]2CN(CCN3CCOCC3)C[C@@H](CO)O2)cc(OC)c1OC	-5	3	3
Nc1[nH]c(C(=O)c2ccccc2)c(-c2ccc(Cl)c(F)c2)c1C(=O)NCCc1c[nH]c2ccccc12	-72	5	-1
CCC(=O)Nc1cc2c(cc1Cl)-c1ccccc1C2	-28	10	-3
COc1cccc(CNC(=O)[C@@H]2CCCN2C(=O)[C@H]2CCCCN2C(=O)c2ccccc2)c1	-7	1	2
COc1oc(C(=O)NC2CCCCC2)c(-c2ccc(Cl)cc2)c1S(=O)(=O)c1ccccc1	15	2	-3
CCOC(=O)N1CCN(C(C(=O)NC2CCCC2)c2cccc(OC)c2OC)CC1 (stereo unspecified)	5	1	6
NCC1C2CCC(O2)C1CO (stereo unspecified)	7	3	1

A different layout for part of the listing above.
Every second line gives: HIV Env fusion	MT1-MMP act inh	MT1-MMP act inh RFP
- CC(C)C[C@@H]1CN(CCCC[C@H]2CNC(=O)C(=O)N2CCC2CCCCC2)C(=O)C(=O)N1Cc1ccccc1
 : -57	4	0
- CCOC(=O)[C@]12CCCC=C1N(Cc1cccc3ccccc13)C(=O)[C@H](CC(=O)N1CCC(c3ccccc3)CC1)C2
 : -6	-6	-14
- Nc1[nH]c(C(=O)c2ccccc2)c(-c2ccc(Cl)c(F)c2)c1C(=O)NCCc1c[nH]c2ccccc12
 : -72	5	-1

New compounds follow
SMILES	HIV Env fusion	MT1-MMP act inh	MT1-MMP act inh RFP
CCCCNc1c(-c2ccc(SC(C)CC)cc2)nc2ccc(Cl)cn12 (stereo unspecified)	-3	1	-7
C=CS(=O)(=O)c1c2cc(OC)ccc2nc2ccc(OC)cc12	10	-1	6
CCC1CN2CCc3cc(OC)c(OC)cc3C2CC1CC1c2cc(OC)c(OC)cc2CCN1C(=O)C(Cc1c[nH]c2ccccc12)NC(=O)OC(C)(C)C (stereo unspecified)	-11	-26	-8
Cc1ccc(S(=O)(=O)N2CC3=C(C2)C2CC2(C)C3)cc1 (stereo unspecified)	-26	0	-6
COc1cccc(Cn2cnc(-c3ccccc3OC)c2C2CC2)c1	-10	0	-6
CC1CN(C(C)C)C(=S)NC1=O (stereo unspecified)	-22	0	4
COc1cc(Nc2nc3c(N)cc(C(F)(F)F)cc3nc2-c2ccccc2)cc(OC)c1OC	31	-4	-2
NC(N)=N/N=C(\N=Nc1ccccc1)c1cccc2cccnc12	-47	-1	0
Nc1nc(=O)c2ccccc2s1	3	-1	2
Nc1[nH]c(C(=O)c2ccccc2)c(-c2ccc(C(F)(F)F)cc2)c1C(=O)NCc1ccc(Cl)cc1Cl	12	-1	3
COc1ccc(OC)c(Cc2cnc3nc(N)nc(N)c3c2C)c1	22	-14	-4
Cc1ccc(-c2nc3ccc(C)cn3c2Cc2cccc(Cl)c2)cc1	-18	-4	-6
COc1ccc(-c2oc3c(c2-c2cnc(OC)nc2)C(O)CC3)cc1 (stereo unspecified)	33	3	2
N#Cc1c(N)[nH]c2ccc(Sc3ccccc3)cc12	-94	16	2
COc1ccc(CCN2CC(C(=O)NCc3cn(C)nc3C)CCC2=O)cc1 (stereo unspecified)	-28	-5	7
O=C1OC(Cc2ccccc2)(c2ccccc2)c2ccccc21 (stereo unspecified)	-6	8	2
Cc1ccc(S(=O)(=O)N2[C@@H](CO)CO[C@H]2CC(=O)c2cccc3ccccc23)cc1	6	0	3
O=[N+]([O-])c1ccccc1C=NN1CCCCCC1	-11	1	-1
CCC(C)c1ccc(S(=O)(=O)N2CCN(CC(O)COCC3CCCO3)CC2)cc1 (stereo unspecified)	18	4	3
CCCCCCCCN1C(=O)[C@H](CC(=O)N2CCC(c3ccccc3)CC2)C[C@@]2(C(=O)OC)CCCCC=C12	-22	-7	-12

Three entries from above, arranged by their value in HIV Env fusion, smallest number first.
SMILES	HIV Env fusion	MT1-MMP act inh	MT1-MMP act inh RFP
O=C1OC(Cc2ccccc2)(c2ccccc2)c2ccccc21 (stereo unspecified)	-6	8	2
COc1cc(CNc2ncnc3c2ncn3[C@H]2CN(CCN3CCOCC3)C[C@@H](CO)O2)cc(OC)c1OC	-5	3	3
COc1oc(C(=O)NC2CCCCC2)c(-c2ccc(Cl)cc2)c1S(=O)(=O)c1ccccc1	15	2	-3

Following part:
SMILES	HIV Env fusion	MT1-MMP act inh	MT1-MMP act inh RFP
COc1ccccc1NC(=O)COC(=O)c1cc2c(s1)CCC2	-5	0	1
Cn1nc(C(=O)NCCc2ccc3c(c2)OCCO3)c2ccccc2c1=O	-30	-3	-2
O=c1[nH]c2cnn(-c3ccccc3)c2c(=O)n1O	-2	-2	-1
Cc1c(Cl)cccc1Nc1n[nH]c(=S)s1	-12	-2	0
COc1ccc(C(=O)c2ccccc2CN2C(=O)c3ccccc3C2=O)cc1	4	-2	0
COc1cc(CCN=Cc2cc(Cl)cc(Cl)c2O)c([N+](=O)[O-])cc1OC	-10	4	1
CC(=O)N1Cc2cc(C(=O)NCc3cccc(F)c3)nc(-c3cccc(C4=CCCCC4)c3)c2[C@H]1CCO	26	-4	-5
CCC(=O)N1Cc2cc(C(=O)NCc3cccc(F)c3)nc(-c3cccc(C4=CCCC4)c3)c2[C@H]1CCO	19	0	0
O=C(O)c1ccccc1C(=O)OC1CCCC2CCCC21 (stereo unspecified)	11	0	0
CCC(C(=O)Nc1c(C)cccc1C)n1c(-c2cnc(C)cn2)nc2ccccc21 (stereo unspecified)	-15	4	2
O=C1C(=Cc2cccc(Cl)c2)CCc2ccccc21	6	6	2
COc1ccc(-c2c(C(=O)c3ccc(Br)cc3)[nH]c(N)c2C(=O)c2ccccc2)cc1OC	-42	7	-7
O=C(OCCO)c1c(-c2ccccc2)oc2c1C(OCCO)CCC2 (stereo unspecified)	61*	6	1
CCCCCc1c(-c2cccc(OC)c2)ncn1CCc1ccccc1OC	36	6	-28
Nc1ncnc2c(C3OC(CO)C(O)C3O)scc12 (stereo unspecified)	109*	-22	-13
COC(=O)C1=CN(c2c(C)cc(C)cc2C)C(N)=C(C#N)C1c1cccc(F)c1 (stereo unspecified)	-6	-6	-5
CCC(c1nnnn1-c1c(C)cccc1C)N1CCCN(Cc2ccc(F)cc2)CC1 (stereo unspecified)	-27	-5	-1
O=C(NCCN1CCC(n2c(=O)[nH]c3ccccc32)CC1)c1ccncc1	7	3	3
N#CC(=C(c1ccccc1)c1ccccc1)c1ccccc1	4	-6	-8
O=C(C(=O)N1CCN(c2ccccc2)CC1)c1ccc2c(c1)OCO2	-10	2	4

Whole records, looked up by structure.
`Nc1ncnc2c(C3OC(CO)C(O)C3O)scc12` (stereo unspecified) is entered as HIV Env fusion: 109*; MT1-MMP act inh: -22; MT1-MMP act inh RFP: -13
`CCC(=O)N1Cc2cc(C(=O)NCc3cccc(F)c3)nc(-c3cccc(C4=CCCC4)c3)c2[C@H]1CCO` is entered as HIV Env fusion: 19; MT1-MMP act inh: 0; MT1-MMP act inh RFP: 0

Next section.
SMILES	HIV Env fusion	MT1-MMP act inh	MT1-MMP act inh RFP
COC(=O)[C@@]1(Cc2ccc(OC)cc2)[C@H]2c3cc(C(=O)N4CCCC4)n(Cc4ccc(S(C)(=O)=O)cc4)c3C[C@H]2CN1C(=O)c1ccccc1	3	3	-1
CCC(C(=O)NC1CCCC1)n1c(-c2ccnc3ccccc23)nc2ccccc21 (stereo unspecified)	-43	-11	-7
C#CCNC(=O)C[C@@H]1C[C@@]2(C(=O)OC)CCCCC=C2N(Cc2ccc(Cl)cc2Cl)C1=O	16	0	0
Cc1cc(=O)oc2c(CN3CCCCC3)c(O)ccc12	-11	0	4
COc1cccc(C(=O)N2CCC[C@H]2C(=O)N2CCC[C@H]2C(=O)NCc2ccc(F)cc2F)c1	-2	1	4
Cc1cccc(C)c1N1CCN(C(c2ccnc3ccccc23)c2nnnn2-c2ccc3c(c2)OCCO3)CC1 (stereo unspecified)	39	-4	-22
COC(=O)[C@]12CCCCC=C1N(CCc1ccc(OC)c(OC)c1)C(=O)[C@H](CC(=O)NCc1ccccc1)C2	-29	-7	-3
COCCNC(=O)C1(C)CCN(Cc2csc(-c3ccc(Cl)cc3)n2)C1 (stereo unspecified)	-11	0	-3
Cc1nc(NC(=O)c2ccccc2)sc1-c1cc(C(=O)NCCO)nn1Cc1ccccc1	-8	14	4
CC(C)NC(=O)C1(C)CSCC(=O)N1Cc1cccc(F)c1 (stereo unspecified)	1	2	3
Cn1ccc(=O)c2cc([N+](=O)[O-])ccc21	-2	2	-3
CC1CCCC(NC(=O)CN2C(=O)NC(C)(c3cc(F)ccc3F)C2=O)C1C (stereo unspecified)	-9	2	1
CC(C)NC(=O)C1(C)CN(S(C)(=O)=O)CC(=O)N1CCCn1ccnc1 (stereo unspecified)	-15	-3	1
COC(=O)[C@@]1(Cc2ccc(F)cc2)[C@H]2c3cc(C(=O)N(C)C)n(CCc4c[nH]c5ccc(O)cc45)c3C[C@H]2CN1C(=O)c1ccccc1	-68	0	1
COc1ccc(C(=O)C(OP(=O)(OC)OC)c2ccccc2OC)cc1 (stereo unspecified)	-4	-3	2
CCCCN(C(=O)c1cccc(S(=O)(=O)N2CCN(C)CC2)c1)c1c(N)n(CC(C)C)c(=O)[nH]c1=O	-14	11	2
COc1cc2c(cc1OC)C(c1ccccc1[N+](=O)[O-])=NCC2	16	5	7
CC(=O)N1c2ccccc2N=C(c2ccc(C(F)(F)F)cc2)C1C(=O)NC1CCCC1 (stereo unspecified)	-1	-1	-2
Clc1cccc(Cc2c(-c3cccc(Br)c3)nc3c4ccccc4ccn23)c1	3	-1	-1
CC1(C(=O)Nc2ccc3c(c2)OCCO3)CSCC(=O)N1C1CCN(Cc2ccccc2)CC1 (stereo unspecified)	-19	5	9
CC(C)CNc1ncnc2c1ncn2[C@H]1CN(Cc2cccc3ccccc23)C[C@@H](CO)O1	19	3	-6
C[C@H](c1ccccc1)N1C[C@@H](COCc2ccccc2)Oc2cc(N3CC[C@@H](O)C3)ccc2S1(=O)=O	10	-1	-5
NC(c1csc(Nc2cnccn2)n1)c1ccccc1Cl (stereo unspecified)	-21	0	6
CC(C)C[C@H]1CN(CCCC[C@H]2CNC(=O)C(=O)N2CCc2ccc(O)cc2)C(=O)C(=O)N1Cc1ccccc1	10	0	7
COc1ccc(N2C(c3ccsc3)=Cc3cc4c(cc3C2c2c[nH]c3ccccc23)OCO4)cc1 (stereo unspecified)	5	-30	-15
COC(=O)[C@@]1(Cc2ccc(OC)cc2)[C@H]2c3cc(C(=O)N4CCCC4)n(CCc4c[nH]c5ccccc45)c3C[C@H]2CN1C(=O)c1ccccc1	-159	-14	-15
C=C(c1ccc2nc(NC(=O)OC)[nH]c2c1)c1cccs1	-459	21	0
CC1COc2c3ccccc3nn21 (stereo unspecified)	8	2	6
CCCCn1nnnc1C1(C)CCC(=O)N1Cc1ccc(OC)cc1 (stereo unspecified)	19	0	0
CSCCC(NC(=O)c1ccc(Cl)cc1Cl)C(=O)N(C)Cc1nc2ccccc2c(=O)[nH]1 (stereo unspecified)	2	2	-2
CC(=O)c1cccc(OC(=O)c2ccccc2)c1	-6	5	3
CCCCCCN1C[C@H](n2cc(C3CC3)nn2)[C@@H](O)C[C@@H]1c1ccccc1	-25	-7	-12
Cc1cc2c(=Cc3ccc(N(C)C)cc3)c3ccccc3n2[n+]1C	35	-6	50
CC(=O)Nc1ccc2c(c1)-c1ccc(F)cc1C2=O	-16	2	3
COc1ccc(Cl)cc1C=CC=NNC(=O)c1ccncc1	-11	-3	-9
COc1ccc(NC(=O)C2(C)CCN2Cc2ccc(C(C)C)cc2)cc1OC (stereo unspecified)	21	4	-13
COc1cc2c(cc1OC)C1c3ccc(OC)c(OC)c3OCC1(O)C2 (stereo unspecified)	-29	-2	-2
O=C1CSC(=S)N1N=Cc1cccc2ccccc12	24	-1	-6
COc1ccc(C(=O)C(=O)N2CCN(c3ccccc3F)CC2)cc1	0	-2	4
Cc1ccc2nc(-c3ccc(F)cc3)c(CC3CCCCC3)n2c1	-4	-7	2
CSc1ncnc2c1ncn2CCCNCc1ccccc1	-3	-4	1
CC(=O)N1CCN(C(=O)OC2CC3CC2[C@H]2CCCCN2C3=O)CC1 (stereo partly specified)	-38	1	-1
CC(C)(C)n1nnnc1C(c1ccccc1)N1CCN(C(=O)c2ccco2)CC1 (stereo unspecified)	21	2	4
